D2 agonist – Beta-Arrestin HTS for Positive Allosteric Modulators of the Human D2 Dopamine Receptor: Agonists; 0.084% of 360,000 active; activation, % (no concentration beside the values); D(2) dopamine receptor (Homo sapiens), P14416; DiscoveRx PathHunter D2 beta-arrestin, luminescence, 90 min; 100% = 57 uM dopamine signal; in the data active = activation above about 40%; inconclusive = about 15% to 40%; inactive = below about 15%; note: compound concentration not given in the record; the text of the record calls up to 30% inactive
Target sequence (P14416 whole entry, looked up): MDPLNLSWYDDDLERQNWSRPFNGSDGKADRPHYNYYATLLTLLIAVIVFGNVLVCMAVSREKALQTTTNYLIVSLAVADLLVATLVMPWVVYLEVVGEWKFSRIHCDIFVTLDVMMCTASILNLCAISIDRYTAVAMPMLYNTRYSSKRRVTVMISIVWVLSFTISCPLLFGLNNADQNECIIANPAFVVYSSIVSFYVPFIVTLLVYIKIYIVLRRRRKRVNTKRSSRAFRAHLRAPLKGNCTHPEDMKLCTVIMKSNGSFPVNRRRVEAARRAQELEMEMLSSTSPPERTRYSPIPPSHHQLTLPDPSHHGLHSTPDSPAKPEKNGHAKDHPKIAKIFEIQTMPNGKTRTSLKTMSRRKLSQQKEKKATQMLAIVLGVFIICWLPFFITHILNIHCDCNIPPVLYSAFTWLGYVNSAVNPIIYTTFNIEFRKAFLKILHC
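Agonist mode: compounds alone added to overnight-plated D2 PathHunter cells for 90 min at 37 C, with 57 uM final dopamine (EC100) defining full response. Beta-arrestin recruitment detected by chemiluminescent reagent, read after 1 h at ambient temperature.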
Sfp inh – qHTS Assay for Inhibitors of Bacillus subtilis Sfp phosphopantetheinyl transferase (PPTase). 4'-phosphopantetheinyl transferase ffp (Bacillus subtilis), Q9F4F7. Biochemical Sfp PPTase activity, qHTS. Potency, µM, for the others: max response, negative = inhibition, hits mostly inhibitors. 3.5% of 310,000 active. AID 1490, 2009; active = well fitted inhibition curve with a large enough effect; inconclusive = small, poorly fitted or top-dose-only effect, or another doubt; inactive = no such curve, though single readings can be large or run the other way;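 note: the enzyme is Sfp with the accession as filed and its product quenches rhodamine fluorescence; potency is the fitted concentration of half-maximal effect; 0% = enzyme reaction without inhibitor and -100% = no enzyme wells; top concentration of the series not given in the record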
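Sfp 15 nM + cpd, 15 min RT; start w/ rhodamine-CoA 5 uM, BHQ-2-YbbR 12.5 uM (final); 50 mM Hepes pH 7.6, 10 mM MgCl2, 0.01% NP-40, 0.01% BSA; read 525/598 nm at 0 and 30 min.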
Six1-Eya2 inh – qHTS Assay for Inhibitors of the Six1/Eya2 Interaction. Homeobox protein SIX1 (Homo sapiens) + Protein phosphatase EYA2 (Homo sapiens), …. AlphaScreen GST-Six1/His-Eya2 binding, biochemical; stronger effect = lower value; control for the full effect not named in the record. activity change, % (concentration not given with the values). 0.56% of 360,000 active; in the data active = activity change below about -65%; inconclusive = about -30% to -65%; inactive = above about -30%; note: % is set by controls: 0 for no effect and ±100 for the full control effect
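AlphaScreen with GST-Six1 and His-Eya2 (5X mix: 250 nM and 500 nM), glutathione donor and nickel acceptor beads; buffer 50 mM Tris pH 8.0, 300 mM NaCl, 1 mM TCEP; 1 h at 37 C in the dark.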
D2 PAM – Beta-Arrestin HTS for Positive Allosteric Modulators of the Human D2 Dopamine Receptor: Potentiators. 0.23% of 360,000 active. potentiation, % (no concentration beside the values). DiscoveRx D2 beta-arrestin cells, luminescence, 90 min; 100% = 57 uM dopamine signal. AID 624464, 2012; active = potentiation of 50% or more; inconclusive = 30% to 50%; inactive = 30% or less;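 note: compound concentration not given in the record; tested on top of an EC20 dose of dopamine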
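D2 cells co-treated with compound plus 50 nM dopamine (EC20) for 90 min at 37 deg C to detect potentiation. Beta-arrestin recruitment was read as enzyme-fragment luminescence after 1 h at ambient temperature. Full response was set by 57 uM dopamine.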
TRPV1 PAM – HTS Assay for Compounds that Act as Potentiators of the Vanilloid Receptor 1 | AID 540277, 2011 | potentiation, % at 8.33 µM | 0.02% of 320,000 active | TRPV1-expressing cells, Fluo-8 calcium influx, capsaicin EC20 potentiation; host cell line not named in the record; control for the full effect not named in the record | Transient receptor potential cation channel subfamily V member 1 (Homo sapiens), Q8NER1; active means potentiation above 80%; inconclusive means 30% to 80%; inactive means below 30%; note: 0% is about no effect
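Cells expressing TRPV1 were dye-loaded with Fluo-8 and read kinetically: 10 s baseline, 3 min after compound (agonist portion), then 2 min after EC20 capsaicin (allosteric enhancer portion). Calcium-bound dye fluorescence at 480/520 nm.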
CtBP-E1A inh – qHTS Assay for Inhibitors of the CtBP/E1A Interaction; CtBP / adenovirus E1A interaction (AlphaScreen); AlphaScreen GST-E1A/His-CtBP binding, 1536-well; stronger effect = lower value; control for the full effect not named in the record; activity change, % (concentration not given with the values); 0.49% of 340,000 active; in the data active means activity change below about -65%; inconclusive means about -30% to -65%; inactive means above about -30%; note: % is set by controls: 0 for no effect and ±100 for the full control effect
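Homogeneous bead-based format: GST-tagged E1A captured on glutathione donor beads, His-tagged CtBP on nickel acceptor beads; compounds precede bead addition by 2 h at 37 °C.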
PINK1 expr mod – A Quantitative High throughput Screen to Identify Chemical Modulators of PINK1 Expression | 0.2% of 410,000 active | AID 624263, 2012 | PINK1 immunofluorescence, high-content cytometry, 24 h | Potency, µM (doses to about 76.6 µM), inactives show at the highest dose activation (PINK1 increase), usual class: activators; active = well fitted activation curve with a large enough effect; inconclusive = small, poorly fitted or top-dose-only effect; inactive = flat fitted curve, though single readings scatter; cell line not stated here;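 note: potency is the fitted concentration of half-maximal effect; % of control where 0% means no effect; nearly all actives have a fitted effect of over 65% in size; a mitochondrial uncoupler was the plate control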
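Fluorescence from anti-PINK1 antibody, together with nuclear and cell stains, was scanned on a laser-scanning cytometer. Before staining, stable-line cells were incubated 24 hours with compounds at 5 concentrations; primary antibody 12 h at 10 degrees C.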
* hit, by the source's call; ? = inconclusive; nt = not tested or not shown; & = joins results of further samples; [ ] = dose if it differs, or a comment.

SMILES	D2 agonist	Sfp inh	Six1-Eya2 inh	D2 PAM	TRPV1 PAM	CtBP-E1A inh	PINK1 expr mod
CSc1nc(C)c(CCOC(=O)c2cccc(Cl)c2)c(=O)[nH]1	-1.1	-12%	-9	1	nt	-7	-0.6%
CCCCCOC(=O)Cn1c(=O)oc2ccc(C)cc21	-2.8	-15%	17	-18	-22	12	12%
CON(c1nc(Cl)nc(N(C)C)n1)S(=O)(=O)c1ccccc1Cl	-1.1	5%	-28	-3	10	-10	-0.8%
COc1cccc(NC(=O)Cc2nnc(SCCOc3ccccc3)n2C)c1	1.9	10%	4	-7	1	-3	-0.9%
Cn1c2c(c(=O)c3ccccc31)CCCC2	1.4	8%	-6	-3	?	-1	-0.2%
CCc1nc2ccc(C(=O)NCCc3ccccc3OC)cc2nc1CC	2.5	2%	-6	-1	16	-3	2.5%&0.9%
COC(=O)C1=NN(c2ccccc2)C2(S1)SC(C(C)=O)=C(C)N2c1ccccc1 (stereo not drawn)	-7.4	-11%	?	-10	-10	?	-0.2%
NC(N)=NS(=O)(=O)c1ccc(NC(=S)NC(=O)c2ccc3c(c2)OCO3)cc1	-2.0	?	12	0	23	nt	3.6%
Cc1ccc(C(=O)Cn2c(C(=O)O)cc3ccccc32)cc1	-4.9	5%	-15	2	2	0	-0.7%
CCCCN(C)C(=O)c1nc2ccccn2c1CN1CCN(c2ncccn2)CC1	-0.7	9%	12	-5	-11	nt	0.1%
O=C(CSc1nnc(CNc2ccc(F)cc2)n1CC1CCCO1)N1CCOCC1 (stereo not drawn)	-2.5	-2%	0	-11	-12	-9	-1.0%
CCN(CC)c1ccc(C(=O)OCC(=O)Nc2cc3oc4ccccc4c3cc2OC)cc1	-3.9	-17%	0	3	-3	18	5.7%
N/C(Cc1cccs1)=N\OC(=O)COc1ccc(Br)cc1	-1.4	-3%	78	2	-7	87	-3.2%
CCCCN1CC(CO)Oc2cccc(F)c2S1(=O)=O (stereo not drawn)	-1.2	nt	7	7	nt	8	0.8%
O=C(CCNS(=O)(=O)c1ccc2[nH]c(=O)oc2c1)NCc1ccc(F)cc1	-3.3	8%	3	-6	18	-2	-0.6%
CCc1cccc(NC(=O)c2snc3c(=O)[nH]cnc23)c1	-1.6	10%	-17	6	8	-23	-0.5%
CC(=O)Nc1ccc(OCc2ccc3c(c2)OCO3)cc1	3.0	-1%	1	-6	23	4	2.3%
O=C(NC1CCCCC1)c1ccc(CNc2ccccc2)o1	-1.0	11%	-1	-3	9	-7	-0.3%
O=S(=O)(N1CCOCC1)n1nnc2ccccc21	-3.9	4%	-5	1	-18	-5	-3.0%[38.3 µM]
CN1C(C(=O)NCc2ccccc2)CC2Cn3c(nc4ccccc43)C21 (stereo not drawn)	-4.3	3%	4	-7	?	-1	1.3%
COCCn1c(SCC(=O)Nc2nc(C)cs2)nnc1C(C)C	-0.4	-3%	7	-6	5	-1	-0.9%
COc1ccccc1-c1nnc(SCC(=O)N2CCCC2)o1	-4.8	3%	6	-1	2	6	0.8%
Cc1nnc(NC(=O)CSc2nnc(-c3ccco3)n2C(C)C)s1	-0.7	5%	-11	-3	4	-2	2.5%
N#CCCN(Cc1ccncc1)C(=S)NC1CC2C=CC1C2 (stereo not drawn)	-4.3	19%	2	-1	4	11	-0.4%
COc1ccc(NS(=O)(=O)c2cccc(C(=O)N/N=C/c3cn(-c4ccccc4)nc3-c3ccccc3)c2)cc1	-0.1	13%	3	-6	-4	3	0.1%
Cc1cccc(-n2c(O)c(C=Nc3ccc4c(c3)OCO4)c3ccccc3c2=O)n1	-3.9	-7%	-15	-18	-20	-5	-1.0%
Cc1cccc(N2N=C(C(=O)Nc3nc(C)cs3)CCC2=O)c1	-4.9	-11%	3	-4	0	nt	3.8%
O=C(CSc1nc2ccsc2c(=O)n1Cc1ccc(C(=O)O)cc1)NCC1CCCO1 (stereo not drawn)	-6.5	-4%	8	6	0	-4	2.2%
CCOc1ccccc1N(CC(=O)Nc1ccc(S(=O)(=O)N2CCOCC2)cc1)S(=O)(=O)c1ccc(Cl)cc1	-5.3	17%	1	-17	-3	6	4.6%
COc1ccc(CCc2nnc(NS(C)(=O)=O)s2)cc1	7.4	-6%	0	-4	0	-1	-0.3%
CC(C)CC(=O)OC1C(N2CCOCC2)c2c(ccc(/C=C/C(=O)N3CCOCC3)c2O)OC1(C)C (stereo not drawn)	-0.7	19%	2	1	-2	1	1.5%
CCC(Oc1ccccc1)C(=O)NC1CCCCCC1 (stereo not drawn)	-0.3	9%	5	-17	-17	1	1.6%
COc1ccccc1CN1C[C@@H]2C[C@@H](c3cccc(C)c3)N3CCC[C@@]23C1=O	-6.0	4%	1	-4	-3	0	1.0%
O=C(Nc1ccnn1C1CCN(Cc2ccccn2)CC1)c1cccc(F)c1	-2.2	8%	0	-10	5	2	0.7%
CCOCCOC(=O)COc1ccc2c(-c3ccccc3)cc(=O)oc2c1	-4.7	7%	0	-33	-32	1	8.6%
CCOC(=O)C1CCN(S(=O)(=O)c2ccc3c(c2)CCN3C(=O)C2CCC2)CC1	3.0	11%	1	-3	2	5	5.4%
COc1ccc(CNC(=O)c2cn(Cc3ccccc3F)c(=O)s2)cc1	5.7	nt	-6	1	nt	3	0.3%
O=C(Cn1ncc2c3ccccc3n(Cc3ccccc3F)c2c1=O)N1CCN(c2ccccn2)CC1	-1.2	1%	0	-5	8	-5	0.3%
Fc1ccccc1/C=N/n1c(-c2cccnc2)n[nH]c1=S	-2.0	?	-12	-28	-6	0	1.0%
CCOc1cc(NC(=S)NCCCN2CCOCC2)c(OCC)cc1NC(=O)C1CCCCC1	9.3	5%	8	7	-4	-3	0.3%
COC(=O)C(C(=O)Nc1ccccc1C)C1CCCCCC1 (stereo not drawn)	0.5	-6%	6	-4	-3	29	9.2%
COc1cc(OC)cc(-c2sc3ccc(OC)cc3c2C#CC(C)(C)O)c1	-4.0	nt	5	-13	10	-7	2.5%
CCOc1ccccc1NC(=O)CC1Nc2cc(C)c(C)cc2NC1=O (stereo not drawn)	-0.2	-1%	10	-4	-25	-2	0.8%
CCCCN(C(=O)C(C)(C)Oc1ccc(Cl)cc1)c1c(N)n(CCC)c(=O)[nH]c1=O	-1.3	nt	2	12	?	nt	-0.3%
O=P(Nc1ccccc1)(Nc1ccccc1)c1ccccc1	2.4	nt	7	4	nt	-2	-3.8%

Exported with each value named: part of the list above.
CCOc1cc(NC(=S)NCCCN2CCOCC2)c(OCC)cc1NC(=O)C1CCCCC1
- D2 agonist: 9.3
- Sfp inh: 5%
- Six1-Eya2 inh: 8
- D2 PAM: 7
- TRPV1 PAM: -4
- CtBP-E1A inh: -3
- PINK1 expr mod: 0.3%

O=S(=O)(N1CCOCC1)n1nnc2ccccc21
- D2 agonist: -3.9
- Sfp inh: 4%
- Six1-Eya2 inh: -5
- D2 PAM: 1
- TRPV1 PAM: -18
- CtBP-E1A inh: -5
- PINK1 expr mod: -3.0%[38.3 µM]

An excerpt from above in order of their number in Six1-Eya2 inh, ascending.
compound	Six1-Eya2 inh
Fc1ccccc1/C=N/n1c(-c2cccnc2)n[nH]c1=S	-12
COc1cc(OC)cc(-c2sc3ccc(OC)cc3c2C#CC(C)(C)O)c1	5
COC(=O)C(C(=O)Nc1ccccc1C)C1CCCCCC1 (stereo not drawn)	6

Following part:
SMILES	D2 agonist	Sfp inh	Six1-Eya2 inh	D2 PAM	TRPV1 PAM	CtBP-E1A inh	PINK1 expr mod
COc1cccc(NC(=O)CNC(=O)c2ccccc2)c1	-4.9	18%	1	-18	?	7	3.9%
CCOc1ccc(C(=O)O/N=C(\N)c2ccccn2)cc1	?	-1%	0	55*	-9	nt	6.4%
CCOc1ccc(-n2c(N)c(-c3nc4ccccc4[nH]3)sc2=S)cc1	-8.7	17%	1	20	0	-5	6.2%
CCCN(C(=O)C(=O)Nc1ccc2nc3n(c(=O)c2c1)CCCCC3)c1ccc(OCC)cc1	-1.7	15%	-6	-13	?	nt	0.1%&3.5%
CC1CN/C(=C\C(=O)c2ccc(Br)cc2)C(=O)N1 (stereo not drawn)	-3.3	18%	-14	-5	-6	1	5.1%
COc1ccc(C(=O)CC(=O)C(=O)Nc2cc(Cl)c(OC)cc2OC)cc1	-1.8	10%	3	-8	4	6	10%
C=CCN(CC=C)CCOc1cc(C)ccc1[N+](=O)[O-]	-3.0	-13%	11	-3	-1	-10	2.7%
CCC(C)[C@H](NC(=O)N1CC(=O)Nc2ccccc21)C(=O)Nc1ccccc1C (stereo partly drawn)	0.0	1%	4	-10	3	nt	1.8%
O=C1CCc2ccc(NC(=O)C3CC3)cc2N1	-3.4	3%	0	-29	-2	-9	-0.7%
N#Cc1ccc2[nH]c(CO)c(-c3ccccc3)c2c1	-1.9	-3%	1	-8	-11	-7	0.6%
O=C(Nc1ncccc1O)c1ccc(NS(=O)(=O)c2ccc3[nH]c(=O)[nH]c3c2)cc1	4.1	nt	?	?	-8	?	6.2%
CCOC(=O)N1CCN(S(=O)(=O)c2c(C)nc3sccn3c2=O)CC1	-0.5	23%	3	-7	-2	nt	2.0%
CCSC(=S)c1c(C)[nH]n(-c2ccccc2)c1=O	-2.8	22%	-1	-11	-10	-3	?
Cc1cccc(NS(=O)(=O)c2cnc(Cl)c(Br)c2)n1	-5.0	10%	0	-1	-6	0	0.4%
CCN(CC)C(=O)C1CCCN(Cc2cccc(F)c2)C1 (stereo not drawn)	-0.7	-19%	0	-7	-11	1	-3.1%[38.3 µM]
COc1ccc(S(=O)(=O)CCc2nnc(NC(C)=O)s2)cc1	-0.4	14%	-1	6	-21	7	-0.3%
CCSc1nnc(NC(=O)NC(CC)(C(F)(F)F)C(F)(F)F)s1	2.7	6%	6	20	0	7	22µM*
CC(=O)CSc1ccc(S(=O)(=O)N2CCN(C)CC2)cn1	-1.7	nt	-1	-3	0	6	-1.6%

Compound activity as filed in PubChem.

This is a random part of the collection (roughly 3.7% active in at least one column).
